# Beta apoptosis: inhibitors of cytokine-induced beta cell apoptosis, primary screen, luminescence; hit rate 0.8% among 300,000; INS-1E cytokine-induced death, ATP luminescence, 48 h; percent of positive-control rescue, neutral wells zero; protection from apoptosis, % (test concentration not listed); AID 435005, 2010;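 active = all replicates at 75% or more, or half of them and the mean; inconclusive = half reach 75% but not the mean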;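 also: 0% = cytokine-treated negative control wells and 100% = positive control rescue; higher means more ATP so stronger rescue from cytokine killing; wells of about 40 µL received 100 nL stock; the first replicate is given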
# Calb FLC: C. albicans growth inhibition with fluconazole, primary screen, CaCi-2 strain, Alamar Blue fluorescence; C. albicans CaCi-2 (fluconazole-resistant clinical isolate) + fluconazole, 48 h; growth inhibition, % (no concentration beside the values); hit rate 0.57% among 300,000;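 active = most replicates above 75%; inconclusive = exactly half above 75%; inactive = most below 75%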;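 also: all wells also contain fluconazole at 8 µg/ml as a sub-toxic cotreatment; 0% = median of DMSO wells and 100% = median of geldanamycin control wells; wells of about 8 µL received 7.5 nL stock; the first replicate is given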
# T cruzi inh: inhibitors of intracellular T. cruzi growth, primary screen, luminescence, NIH3T3 host cells | T. cruzi beta-gal in NIH3T3, 90 h | hit rate 1.4% among 300,000 | AID 1885, 2009 | inhibition, % (no concentration beside the values);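 active = mean inhibition across valid replicates above about 55%, limit read from the data; inconclusive = mean below that limit but half or more replicates reach it; inactive = mean below it, under half of replicates reach it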;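 also: signal also drops with host cell toxicity which is not excluded here; 0% = plate median of DMSO wells and 100% = zero luminescence signal; higher percent means less beta-gal luminescence so fewer parasites; stock transfer was 50 nL into about 50 µL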
# rRNA inh HTS: reduced GFP signal of wild-type E. coli, primary screen, bacterial rRNA inhibitor project, GFP/RFP fluorescence, OD600, single point; GFP signal change (wild-type ribosome), % (test concentration not listed); hit rate 1.6% among 350,000; E. coli WT GFP vs humanized-ribosome RFP mutants, 24 h; active compounds read low; DMSO median 0, no signal -100;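 active = significant combined selectivity score with lowered wild-type GFP, culture density cut under 30%, mutant RFP and density less affected; inactive = any of these conditions unmet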; also: one replicate is shown; some compounds called inactive have numbers as strong as hits
# Vif TR-FRET: inhibitors of Vif binding to APOBEC3G peptide, primary screen, biochemical, TR-FRET, GST-Vif 1-94, biotin-A3G peptide, dose response retest (AID 1117319); Virion infectivity factor (Human immunodeficiency virus type 1 group M subtype B (isolate …; TR-FRET GST-Vif / biotin-A3G peptide binding; higher % means a stronger effect; test concentration not given here; strong numbers were not always called active; inhibition, %, or IC50 in µM where a hit was titrated; hit rate 0.57% among 260,000;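 active = above the screen mean plus three standard deviations and confirmed in dose response; inconclusive = results disagree or hit not tested in dose response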;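 also: Vif residues 1-94 fused to GST binding biotinylated APOBEC3G peptide 110-148; 0% = full assay without inhibitor and 100% = GST in place of GST-Vif; retest series ran down from 100 µM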
# AF4-AF9 inh: inhibitors of AF4 peptide binding to AF9, primary screen, biochemical, AlphaScreen, biotin-AF4 peptide, FLAG-AF9, single point; inhibition, % at 10 µM; hit rate 0.47% among 350,000;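 active = every replicate reaching a set inhibition limit, whatever the replicate mean, cut at about 25% in these data; inconclusive = mean inhibition reaches that limit but some replicates miss it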;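 also: 0% = plate neutral control median and 100% = total signal loss; the record names both 10 and 1 µM as test concentration; the first replicate is given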
# Target sequence (P42568 whole entry, looked up): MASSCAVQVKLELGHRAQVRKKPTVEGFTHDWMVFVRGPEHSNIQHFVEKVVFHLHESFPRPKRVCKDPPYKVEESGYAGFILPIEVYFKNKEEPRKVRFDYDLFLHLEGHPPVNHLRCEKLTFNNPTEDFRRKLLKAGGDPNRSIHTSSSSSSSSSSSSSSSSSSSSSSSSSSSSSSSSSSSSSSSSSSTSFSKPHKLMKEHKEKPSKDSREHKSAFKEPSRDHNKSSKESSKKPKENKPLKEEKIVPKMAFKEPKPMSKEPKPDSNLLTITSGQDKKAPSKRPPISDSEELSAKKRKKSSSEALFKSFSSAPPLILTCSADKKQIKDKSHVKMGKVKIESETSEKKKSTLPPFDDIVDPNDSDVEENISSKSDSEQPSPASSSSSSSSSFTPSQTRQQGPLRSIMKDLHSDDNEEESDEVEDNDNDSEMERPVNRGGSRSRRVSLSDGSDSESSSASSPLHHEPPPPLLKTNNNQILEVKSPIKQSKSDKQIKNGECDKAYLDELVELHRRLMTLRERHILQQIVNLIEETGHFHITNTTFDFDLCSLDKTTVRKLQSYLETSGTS
# Bfl-1 A1 inh: caspase 3/7 activation in MEF A1-2A-BIM cells, primary screen, A1 inhibitor project, cell-based, luminescence, HTS | AID 2462, 2010 | caspase activation, % (concentration not given with the values) | hit rate 0.066% among 330,000 | Caspase-Glo 3/7 luminescence, 3 h; percent of clofoctol response, vehicle zero;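 active = over half of replicate activation scores above 10%, or exactly half above 10 with the replicate mean above 10; inconclusive = replicate mean below 10 yet half the replicates above 10; inactive = over half of replicates below 10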;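 also: wells of about 30 µL received 50 nL stock; many hits fall short of the cut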
# RanGTP-Imp inh: inhibitors of RanGTP-importin-beta interaction, primary screen, biochemical, FRET, CFP-Ran, YFP-importin-beta, homogeneous. Ran GTPase (GTP-bound) - importin-beta complex. cell-free CFP-Ran/YFP-importin-beta FRET ratio. inhibition, % (no concentration beside the values). hit rate 1.1% among 300,000;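 active = most replicates above 15%; inconclusive = exactly half above 15%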;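 also: 0% = DMSO wells and 100% = Ran loaded with GDP instead of GTP; wells of about 40 µL received 100 nL stock; the first replicate is given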
# rRNA inh HTS OD600: second read-out of rRNA inh HTS, no call of its own (marks repeat the call); OD600 change, %; measured here: OD600 growth;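 optical density of the mix in the first replicate; 0 = DMSO median and -100 = no signal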
# rRNA inh HTS RFP: second read-out of rRNA inh HTS, no call of its own (marks repeat the call); RFP signal change, %; measured here: RFP humanized mutant strains;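 first replicate; 0 = DMSO median and -100 = no signal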
# An asterisk follows results filed as active; ? = inconclusive; . = no result given; & = joins results of further samples. Only part of the results is shown; rates above refer to the full screens.
SMILES,Beta apoptosis,Calb FLC,T cruzi inh,rRNA inh HTS,rRNA inh HTS OD600,rRNA inh HTS RFP,Vif TR-FRET,AF4-AF9 inh,Bfl-1 A1 inh,RanGTP-Imp inh
CSc1ccc(C(=S)N2CCN(C(c3ccccc3)c3ccccc3)CC2)cc1,3.2,-2.5,16.3,.,.,.,-4.1%,.,0.4,-1.5
CC(=O)c1nnn(-c2ccc([N+](=O)[O-])cc2)c1C,2.7,-5.7,12.4,25.7,16.6,0.8,-6.9%,-3.3,0.0,2.0
CCOC(=O)CCS(=O)(=O)c1nc(-c2ccccc2)cc(C(F)(F)F)n1,30.7,3.2,-55.7,.,.,.,5.8%,.,9.7*,1.6
CCOC(=O)C1=C(c2ccccc2)N=C2SCC(=O)N2C1c1cccc(OC)c1 (stereo unspecified),-2.8,1.0,6.9,.,.,.,-0.1%,.,-0.4,-1.6
COc1cc(NC(=O)c2cccs2)c(C(=O)OCC(=O)NCc2ccccc2)cc1OC,41.3,8.2,-3.9,.,.,.,-1.3%&2.7%,.,0.3,5.3
Cc1ccc(N2C(=O)[C@@H]3C(c4cccnc4)=NO[C@@H]3C2=O)cc1,-2.7,28.0,-13.5,1.1,-0.8,4.3,7.2%,.,0.4,0.8
CCOc1ccccc1N(CC(=O)NCC1CCCO1)C(=O)CCC(=O)Nc1nccs1 (stereo unspecified),-4.3,-0.2,-4.7,2.4,2.4,-2.1,.,-0.7,0.2,-2.4
O=[N+]([O-])c1ccc(Cl)cc1NCc1cccnc1,-9.6,6.6,.,-21.1*,-12.1*,-6.1*,.,6.2,0.8,0.3
O=C(NNc1ccc(C(F)(F)F)cc1[N+](=O)[O-])c1ccc(NS(=O)(=O)c2ccc(F)cc2)cc1,3.9,12.8,-1.3,.,.,.,.,.,0.8,0.9
Cc1ccc(NC(=O)Cn2nnc(C(=O)Nc3ccc(F)c(Cl)c3)c2N)cc1,.,-0.8,-0.1,5.3,9.9,-2.6,-4.0%,-10.2,-2.0,5.6
COc1cccc(/C=N/NC(=O)CNC(=O)CCc2ccccc2)c1O,0.5,-4.0,-3.0,-10.2,-1.8,0.2,0.5%,-10.0,0.1,-0.4
CCCCn1nc2cc(C(=O)NCc3ccccc3)ccc2c1OCC,-0.9,2.7,12.0,-22.8,-25.6,5.7,-4.5%,-5.2,-0.3,-8.9
O=C(OCC(=O)N(C1CCCCC1)C1CCCCC1)c1ccco1,5.3,-26.4,10.8,.,.,.,3.9%,.,-1.4,-1.3
Cc1ccc(CNC(=O)CCS(=O)(=O)c2ccc3c(c2)NC(=O)CO3)cc1,-5.8,3.6,0.3,-4.4,4.5,1.5,-4.0%,0.7,0.1,-1.5
CCOC(=O)c1cc(-c2ccccc2)sc1NC(=O)C(C)OC(=O)c1ccncc1 (stereo unspecified),-3.2,4.1,36.0,15.5,5.0,0.8,-28.3%,-6.0,-1.3,-1.3
Cc1ccc(-c2csc3nnc(SCC(=O)NCc4ccc5c(c4)OCO5)n23)cc1,0.7,-45.1,1.9,.,.,.,0.0%,.,0.0,5.1
COc1cc(N2CCCC2)c(OC)cc1C=O,.,24.1,3.9,0.9,-5.5,1.6,7.0%,4.4,0.8,-0.6
CCOC(=O)c1nnn2c1nc(N1CCCCC1)c1ccccc12,.,-7.1,9.1,-19.2,-17.0,-2.0,1.8%,3.5,1.3,2.0
Cc1cc(C)nc(NC(=O)c2ccc3c(c2)OCO3)c1,.,-2.6,-8.5,.,.,.,-2.0%,.,-2.6,-1.4
NS(=O)(=O)c1cc(C(=O)NCCOc2ccccc2)c(Cl)cc1Cl,-0.2,-2.0,0.7,.,.,.,-9.4%,.,0.5,-2.9
CC(C)CCn1nnnc1C(c1ccccc1F)N1CCC(C(N)=O)CC1 (stereo unspecified),-2.5,0.0,2.7,.,.,.,30.1%,.,-0.8,0.7
Cc1ccc(C)c(NC(=O)CN(C)C(=O)c2ccncc2)c1,-1.0,-0.7,-14.9,-3.1,-11.2,1.8,.,-0.7,0.9,1.6
COc1cc2c(cc1OC)C1=NC(=O)CN1C(SCc1ccc(C)cc1)=N2,34.1,-3.0,6.3,.,.,.,6.0%,.,0.0,1.9
O=C1COc2ccc(C(=O)NCc3ccc4c(c3)OCO4)cc2N1,-0.4,0.3,-7.0,.,.,.,6.2%,.,-0.6,0.2
CN(C)C(/C=C/Nc1ccc(Br)cc1)=C(C#N)C#N,-1.2,-7.1,3.9,4.3,7.5,-1.3,12.4%,-0.8,-0.1,0.8
O=C1CCCN1c1ccc(S(=O)(=O)Oc2cccc(Cl)c2)cc1[N+](=O)[O-],2.6,-2.7,-3.3,.,.,.,-0.7%,.,0.1,3.6
CCN1CC(CN(C)Cc2nc(-c3cccs3)no2)CC1=O (stereo unspecified),-5.4,16.0,1.6,53.2,6.7,2.0,19.2%,-3.0,0.1,0.7
O=C(CCN1CCOCC1)NNC(=O)Nc1cccc(C(F)(F)F)c1,0.0,-2.6,-2.8,7.2,13.1,-0.1,.,-0.4,-0.5,1.6
NC(=O)c1cc(S(=O)(=O)NCCc2ccc(Cl)cc2)cs1,-4.7,2.0,-10.9,0.4,5.8,-1.7,.,-11.5,1.1,1.3
O=c1oc2ccccc2n1Cc1cccc(F)c1,-6.9,9.4,4.6,4.6,1.3,-1.7,-3.0%,-1.0,0.8,-0.7
Cn1c(CC(=O)Nc2ccc(F)cc2)nnc1SCC(=O)NC1CCCCC1,-1.1,-0.8,2.9,4.6,8.7,0.1,.,-8.4,0.3,2.6
C/C(=N/N1CCN(c2ccccn2)CC1)c1cccc([N+](=O)[O-])c1,8.3,-10.2,-11.3,-4.5,3.4,-3.2,.,11.1,0.1,-1.2
CCCCc1nc(SCC(=O)Nc2ccc(S(N)(=O)=O)cc2)n[nH]1,-1.4,-8.2,0.0,.,.,.,1.5%,.,1.3,1.0
COc1ccc(CN(C)C(=O)Cc2ccc(OC)c(S(=O)(=O)N3CCOCC3)c2)cc1OC,-5.2,.,.,0.4,0.9,1.8,-3.2%,?,0.4,.
O=[N+]([O-])c1cccc2ccc(/C=C/c3cccc(Br)c3)nc12,3.3,10.5,28.6,.,.,.,9.8%,.,-0.2,2.0
CC(=O)Nc1ccc(S(=O)(=O)N2CCCC(C(=O)N3CCN(c4ccccc4)CC3)C2)cc1 (stereo unspecified),-1.4,.,3.5,-8.5,-2.4,-3.0,.,1.8,0.3,.
COc1cc(SC)ccc1C(=O)NC1CCCc2ccccc21 (stereo unspecified),5.2,-2.7,7.2,7.5,7.9,1.2,.,-0.4,-0.1,2.5
CCOC(=O)c1c(SC)[nH]c2c(Cl)cccc2c1=O,-8.6,3.4,1.0,20.4,6.0,1.9,5.3%,0.7,0.7,1.5
CC(C)N1C(=O)C2C(C(=O)NCc3ccccc3)C3C=CC2(O3)C1C(=O)NC(C)(C)C (stereo unspecified),-6.8,0.9,-2.5,.,.,.,9.3%,.,0.2,2.6
O=C(N/N=C/c1cccn1-c1ccc([N+](=O)[O-])cc1)C(O)c1ccccc1 (stereo unspecified),-4.4,-10.5,-0.3,7.2,4.6,3.1,14.4%,15.8,0.6,-0.3
CN(C)c1nc2n(c(=O)n1)CCO2,-1.3,-0.9,-21.9,12.1,6.7,-1.2,2.1%,1.7,0.1,2.4
Fc1ccccc1NC(=S)Nc1cccc2cnccc12,52.0,8.4,39.4,-6.2,-34.9,9.3,14.9%,1.6,0.2,8.7
CCc1ccc(C(=O)C(C)OC(=O)c2nc3nc(C)cc(C)n3n2)cc1 (stereo unspecified),-5.0,-7.7,-9.1,3.9,1.9,1.3,1.2%,-1.9,-1.7,2.9
COc1ccc(Cn2nnnc2C(c2ccccc2)N2CCN(C3CCCC3)CC2)cc1 (stereo unspecified),.,-2.7,-13.3,.,.,.,8.3%&-7.8%,.,.,2.1
COc1cc(/C=N/NC(=O)c2ccc(NC(=O)C3CC3)cc2)ccc1OC(C)=O,2.0,3.2,-24.4,6.5,5.4,0.8,.,-2.0,-0.6,2.5
CC1CC(C)CN(c2ncc3c(n2)CC(c2ccccc2Cl)CC3=O)C1 (stereo unspecified),9.2,?,32.3,.,.,.,18.2%,.,0.1,0.7
O=C(Nc1ccc(S(=O)(=O)Nc2nccs2)cc1)c1nn(-c2ccccc2)ccc1=O,-4.2,34.1,-7.1,4.2,23.4,6.9,.,2.2,-0.1,-3.2
c1ccc(Cn2cc(-c3cccnc3)cn2)cc1,-4.7,.,.,4.5,13.4,1.8,.,-0.9,-0.2,.
Cc1ccc(NC2CCCN(C(=O)c3ccccc3N3CCOCC3)C2)cc1C (stereo unspecified),-0.9,10.7,17.4,5.7,8.2,0.6,.,6.0,0.5,1.8
Cc1cccc2c1-c1sc(C(=O)Nc3ccccc3N3CCN(C)CC3)cc1CO2,4.3,?,28.1,-60.3,-79.8,-26.0,-0.1%,?,-0.2,-3.7

# (cont.)
SMILES,Beta apoptosis,Calb FLC,T cruzi inh,rRNA inh HTS,rRNA inh HTS OD600,rRNA inh HTS RFP,Vif TR-FRET,AF4-AF9 inh,Bfl-1 A1 inh,RanGTP-Imp inh
Cc1nnc2sc(-c3ccc(NC(=O)CSc4ccc(Cl)cc4)cc3)nn12,-4.3,-2.2,13.5,.,.,.,9.2%,.,-0.8,-0.1
CC(C)CN(CCNC(=O)CN1C(=O)COc2ccc(S(=O)(=O)N3CCOCC3)cc21)CC(C)C,-9.3,-11.4,-2.0,3.7,20.8,-1.9,.,-6.0,0.1,-2.8
O=C(CSc1nccc(=O)[nH]1)NC1CCCC1,-4.5,-3.1,-8.7,13.9,11.8,0.4,.,-1.8,0.4,2.8
CN(C)c1ccc(C(C[N+](=O)[O-])c2c(N)n(C)c(=O)n(C)c2=O)c(F)c1C#N (stereo unspecified),.,-8.7,39.0,-8.5,-2.3,10.1,2.4%,0.2,0.0,3.9
COc1cccc(NS(=O)(=O)c2ccc(S(=O)(=O)N3CCOCC3)cc2)c1,6.4,12.7,-21.4,.,.,.,6.7%,.,0.6,-5.9
O=[N+]([O-])c1ccc(N2CCN(CCO)CC2)c2ncccc12,-0.5,0.4,-10.8,.,.,.,17.4%,.,0.6,12.0

# Bioassay records from PubChem.
